# Screens as filed in PubChem BioAssay.
# VDR inhibitor – blocks the human vitamin D receptor. P11473. VDR-SRC2-3 peptide fluorescence polarization, 2 h. Potency, µM, for the others: max response, negative = inhibition, most hits filed as inhibitors. actives 0.93% (n = 400,000); active = well fitted inhibition curve with a large enough effect; inconclusive = small, poorly fitted or top-dose-only effect, or another doubt; inactive = no such curve, though single readings can be large or run the other way; note: series mostly up to about 120 µM
# Target sequence (P11473 whole entry, looked up): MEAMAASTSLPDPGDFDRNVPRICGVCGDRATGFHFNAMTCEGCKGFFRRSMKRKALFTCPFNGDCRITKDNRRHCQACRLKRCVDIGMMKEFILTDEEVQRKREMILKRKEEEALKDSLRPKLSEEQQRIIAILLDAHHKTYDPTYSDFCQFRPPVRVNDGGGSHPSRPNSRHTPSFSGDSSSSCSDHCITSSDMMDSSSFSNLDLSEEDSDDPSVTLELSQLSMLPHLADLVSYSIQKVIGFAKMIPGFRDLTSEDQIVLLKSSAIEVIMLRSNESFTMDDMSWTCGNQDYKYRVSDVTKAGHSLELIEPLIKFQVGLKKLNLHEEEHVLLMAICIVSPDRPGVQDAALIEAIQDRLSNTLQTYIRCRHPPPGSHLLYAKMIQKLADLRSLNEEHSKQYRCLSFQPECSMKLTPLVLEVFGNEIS
#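 Signal is fluorescence polarization, reporting how far test compounds block the interaction of VDR with the SRC2-3 coregulator peptide after a 2 h room-temperature incubation.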
# Active calls of the source: *; ? = inconclusive; & = joins results of further samples; [ ] = another dose, or the depositor's remark. % is set by controls: 0 for no effect and ±100 for the full control effect; potency is the fitted concentration of half-maximal effect. An excerpt; the hit share may differ from the screen's.
molecule | VDR inhibitor
CCC(CO)NC(=O)c1cc2c(s1)CCC2 (configuration not stated) | -1.9%
COc1ccc(NC(=O)c2cc([N+](=O)[O-])ccc2N2CCCCC2)cc1 | -6.7%
COc1ccc(CNC(=O)c2c[nH]c3ccccc3c2=O)cc1 | -18.2%
O=c1cc(CN2CCc3ccccc32)c2ccc(O)cc2o1 | 13.4%
Cc1ccc(S(=O)(=O)N(C)CC(=O)NNC(=O)CCNS(=O)(=O)c2cccc(C)c2)cc1 | 0.7%
S=C=Nc1ccc(N=C=S)cc1 | 1.4%
Cc1cccc(C)c1NC(=O)C(=O)c1cn(C)c2ccccc12 | -1.8%
CCCCCCn1cc(C(=O)O)c(=O)c2cc(F)c(N3CCN(C)CC3)cc21 | 3.2%
COc1ccc(-c2cc3c(=O)n(CC(=O)NC4CCN(Cc5ccccc5)CC4)ncn3n2)cc1 | -4.9%
Cc1ccc(C)c(NC(=O)N2CCC(N3CCN(Cc4ccc(F)cc4)C(=O)C3=O)CC2)c1 | 4.2%
Cc1cc2c(SCC(=O)Nc3ccccc3O)ncnc2s1 | -17.5%
COc1ccccc1-c1cc(C(=O)N/N=C/c2ccc(C)s2)c2ccccc2n1 | -13.7%
O=C1CNC(=S)N1Cc1ccccc1 | -3.3%
O=C1CC(c2ccc3c(c2)OCO3)c2cc3c(cc2N1)OCO3 (configuration not stated) | 9.4%
CCOc1ccc(S(=O)(=O)NCCC(=O)NCC(c2cccs2)N2CCOCC2)cc1 (configuration not stated) | -0.2%
CCCCCCCN1CCC(=O)N([C@H](CO)c2ccccc2)CC1 | -22.6%
COc1ccc(CCN2C(=O)c3oc4cc(C)cc(C)c4c(=O)c3C2c2ccccc2F)cc1OC (configuration not stated) | 4.4%
COC(=O)c1cc(NC(=O)c2ccc(Cn3cc(Cl)cn3)o2)cc(C(=O)OC)c1 | 8.7%
CCn1c(=O)n(CC2CCC(C(=O)NC(C)C)CC2)c(=O)c2sccc21 (configuration not stated) | 4.8%
O=C1[C@H]2CC3C=CC2(O3)[C@@H]2OCCCN12 (some centres not stated) | -22.3%
COc1ccccc1N(C(=O)c1snc(C(N)=O)c1N)C(C(=O)NCCC(C)C)c1ccco1 (configuration not stated) | -4.4%
Cc1ccccc1N1CCN(CCCN2C(=O)CC(=C(c3ccccc3)c3ccccc3)C2=O)CC1 | 8.1%
c1cncc(CNc2ncnc3ccc(-c4ccoc4)cc23)c1 | ?
Cc1[nH]ccc(=O)c1OCc1ccc(Cl)cc1 | -12.9%
C[C@H](N)C(=O)NCC(=O)N[C@H]1CSSC[C@@H](C(=O)O)NC(=O)[C@H](CO)NC(=O)[C@H]([C@@H](C)O)NC(=O)[C@H](Cc2ccccc2)NC(=O)[C@H]([C@@H](C)O)NC(=O)[C@H](CCCCN)NC(=O)[C@@H](Cc2c[nH]c3ccccc23)NC(=O)[C@H](Cc2ccccc2)NC(=O)[C@H](Cc2ccccc2)NC(=O)[C@H](CC(N)=O)NC(=O)[C@H](CCCCN)NC1=O | -5.6%
C=CCn1c(-c2cc3cccc(OC)c3o2)n[nH]c1=S | -9.0%
Cc1cc(N=Nc2ccccc2)cc(C)c1NC(=O)C(F)(F)F | -7.2%
Cc1c(C(=O)N2CCC(c3nc4ccccc4s3)CC2)oc2cc(Br)ccc12 | 5.2%
O=C(CSc1nnc([C@@H]2CCCN2)o1)c1ccc(Cl)cc1 | -28.9%
Cc1nnc(NC(=O)/C=C/c2ccco2)s1 | -14.0%
CCC(=O)Nc1cc(ON=C(C)C)cc([N+](=O)[O-])c1 | -11.3%
COc1ccc(CN2CCN(S(=O)(=O)c3ccc(NC(C)=O)cc3)CC2)c(OC)c1OC | -0.7%&-6.9%
Clc1ccc(-n2cnnn2)cc1 | 9.4%
COc1ccc(S(=O)(=O)N2CCCC2C(=O)Nc2ccc(O)cc2)cc1 (configuration not stated) | -27.5%
CC1CCCCN1C(=O)C1COc2ccccc2O1 (configuration not stated) | 24.0%
COc1ccc2oc(C(=O)OCC(=O)NCc3ccco3)c(C)c2c1 | -19.7%
Cc1nc(NC(=O)COC(=O)c2cc3c(s2)CCC(C)C3)c(Cl)cc1Cl (configuration not stated) | -14.1%
CC(OC(=O)Cc1ccsc1)C(=O)Nc1ccc(C(N)=O)cc1 (configuration not stated) | -28.1%
COC(=O)c1sccc1NC(=O)c1c(F)c(F)c(F)c(F)c1F | 2.2%
Cc1ccc(Cn2c(=N)n(CC(=O)c3ccccc3)c3ccccc32)cc1 | -1.7%
NS(=O)(=O)c1ccc(NC(=O)CCCCC(=O)Nc2ccc(S(N)(=O)=O)cc2)cc1 | 7.2%
CC(Nc1ccccc1)C(=O)Nc1ccc(F)cc1 (configuration not stated) | 16.8%
COc1ccc(N2CCN(C(=O)C3CCN(S(=O)(=O)c4cnc[nH]4)CC3)CC2)cc1 | -2.0%
CC(=O)N1CCN(c2ccccc2NC(=O)c2ccc3ccccc3c2)CC1 | 0.3%
C=Cc1ccc(CN2C(=O)N(c3ccc(CC)cc3)S(=O)(=O)c3ccccc32)cc1 | -3.9%
Cc1cc(=O)[nH]c2nnc(SCC(=O)Nc3ccc(F)cc3F)n12 | 14.7%
COC(=O)c1ccc(CN2CCCC(C(=O)c3cc(F)ccc3OC)C2)cc1 (configuration not stated) | -6.5%
CCN(Cc1ccccc1)C(=O)CS(=O)(=O)c1ccccc1 | 6.4%
CCCCCc1ccnc(CC(=O)c2ccc(OC)cc2)c1 | 13.7%
CCCCC1(C)Cc2ccccc2C(=S)N1 (configuration not stated) | -12.9%

# The results go on:
molecule | VDR inhibitor
COc1ccc(C(CC(=O)N2CCCC(C)C2)c2c(OC)cc(OC)c3ccc(=O)oc23)cc1 (configuration not stated) | -12.3%&8.1%
Cn1c(SCc2cccnc2)nc2c(c1=O)SCC2 | -3.8%
C=CCn1c(SCC(=O)NC2CCCC2)nc2scc(-c3ccco3)c2c1=O | -16.9%
CCOc1ccccc1NS(=O)(=O)c1c(C(=O)OC)sc2cccc(F)c12 | -6.1%
COc1ccc(Oc2nc3c(c(=O)n(C)c(=O)n3C)n2Cc2ccccc2)cc1 | -16.8%
COc1cccc(-c2nc(CS(=O)(=O)CC(=O)N3CCN(c4ccccn4)CC3)c(C)o2)c1 | -25.3%
Cc1noc(/C=C/N(C)C)c1S(=O)(=O)N1CCc2ccccc21 | 0.7%
N#Cc1nc(/C=C/c2ccc(F)cc2)oc1N1CCCCC1 | 6.9%
CC(OC(=O)Cn1nnc2ccccc21)C(=O)NC1CCCC1 (configuration not stated) | 0.3%
CN(C)Cc1nc2ccccc2c(=O)n1CC#N | -5.2%
O=C(COC(=O)c1cnc(Cl)c(Cl)c1)NC1CC1 | -13.6%
C[C@H]1CN([C@@H](C)CO)C(=O)Cc2cc(NC(=O)CCC(F)(F)F)ccc2O[C@H]1CN(C)Cc1ccc(-c2ccccc2)cc1 | -12.9%
COC(=O)CN1C(=O)C(O)(CC(=O)c2cccc(Br)c2)c2ccccc21 (configuration not stated) | -18.9%
Cc1ccc(-n2c(=O)c3sccc3n(CC(=O)NCC3CCCO3)c2=O)cc1F (configuration not stated) | -9.7%
Cc1c(Br)cc(C(=O)OC2CCN(C)CC2)c(C)c1C | 2.3%
O=C(CCC(=O)c1ccc(Cl)s1)Nc1ncccc1O | -19.2%
O=C(O)CCC(=O)NNC(=O)CCC(=O)NCc1ccccc1 | 6.1%
COC(=O)c1ccccc1NC(=O)Cn1c(SC)c(F)cnc1=O | 11.7%
CS(=O)(=O)N(CC(=O)NCCSCc1ccccc1)c1ccccc1Br | 6.0%
COc1ccc(CN(C)C(=O)c2oc3ccccc3c2CSC)cc1F | 18.1%
O=C(c1ccc(F)cc1)C1CCN(Cc2cn[nH]c2-c2ccccc2)CC1 | 4.1%
CC1CCCCC1NC(=O)c1ccco1 (configuration not stated) | 11.7%
CC(=C/C(=O)O)/C=C/c1ccco1 | -7.8%
COc1ccccc1NC(=O)c1ccccc1C(=O)O | -1.4%
O=C(NCCCc1ccccc1)Nc1cccc(Cl)c1 | 5.4%

# Sorted by count of non-hydrogen atoms (high to low): part of the list above
molecule | VDR inhibitor
C[C@H]1CN([C@@H](C)CO)C(=O)Cc2cc(NC(=O)CCC(F)(F)F)ccc2O[C@H]1CN(C)Cc1ccc(-c2ccccc2)cc1 | -12.9%
COc1cccc(-c2nc(CS(=O)(=O)CC(=O)N3CCN(c4ccccn4)CC3)c(C)o2)c1 | -25.3%
Cc1ccc(-n2c(=O)c3sccc3n(CC(=O)NCC3CCCO3)c2=O)cc1F (configuration not stated) | -9.7%
CC(OC(=O)Cn1nnc2ccccc21)C(=O)NC1CCCC1 (configuration not stated) | 0.3%
Cc1c(Br)cc(C(=O)OC2CCN(C)CC2)c(C)c1C | 2.3%
Cn1c(SCc2cccnc2)nc2c(c1=O)SCC2 | -3.8%
CC1CCCCC1NC(=O)c1ccco1 (configuration not stated) | 11.7%

# The list goes on:
molecule | VDR inhibitor
COc1ccccc1C(=O)NCCC(=O)N1CCCC(C(F)(F)F)C1 (configuration not stated) | -2.7%
CCOC(=O)c1c(C)oc2ccc(O)c(CN(C)C)c12 | -10.7%
CCCC(=O)c1ccc(N2CCN(C(=O)c3ccccc3)CC2)c(F)c1 | -10.7%
Cc1ccc(-n2nnnc2SC(C(=O)c2c[nH]c3ccccc23)c2ccccc2)cc1 (configuration not stated) | 5.6%
COc1cccc(C2C=C(c3cccs3)Nc3ncnn32)c1OC (configuration not stated) | -8.9%
COc1ccc(C(=O)NC(=S)Nc2ccc3oc(=O)ccc3c2)cc1 | 4.5%
COc1ccc(N2CCN(C(=O)c3cccc4nc(C)oc34)CC2)cc1 | -1.1%
Cc1nc(NC(=O)CSc2nnc(C3CC3)n2C)sc1C(=O)N(C)C | 10.4%
Cc1ccc(NS(=O)(=O)c2c(C)[nH]c(C)c2C(=O)N2CCCCC2)c(C)c1 | -10.0%
COc1ccccc1N1CCN(C(c2ccc(Cl)cc2)c2nnc(-c3cccc(F)c3)o2)CC1 (configuration not stated) | -4.9%
Cc1ccccc1OCCC(=O)N1CCN(S(=O)(=O)c2ccc(Cl)cc2)CC1 | -0.8%
CC(O)CNC(=O)c1ccc(-c2nn(C)c(=O)c3ccccc23)cc1 (configuration not stated) | -2.9%
Cc1ccc(C)c(C2C(=O)c3ccccc3C2=O)c1 | 10.1%
S=C(NC1CCCCC1)NN1CCOCC1 | 7.5%
CCOc1ccccc1NC(=O)Nc1ccc(Cl)cc1 | 1.6%
Cc1cc(C)nc(SCc2nnc(SCC(=O)Nc3ccccc3C)n2Cc2ccco2)n1 | 0.3%
CCCCOc1cccc(NC(=O)CSc2nnc(C)s2)c1 | 46.0%[activator]
Nn1c(SCCOc2ccc(Cl)cc2)nnc1-c1cccnc1 | -14.0%
Oc1ccc(-c2nc3ccccn3c2Nc2ccc3c(c2)OCCO3)cc1 | 15.6%
O=C1C=CC(=O)N1c1cccc2cccnc12 | 25.4%
Brc1cccc2sc(N3CCN(c4ccccc4)CC3)nc12 | -1.2%
CC(NC(=O)COc1ccccc1-c1ccccc1)c1ccccc1 (configuration not stated) | -9.8%
O=C(NCCN1CCOCC1)c1cc(-c2ccccc2Cl)nc2ccccc12 | -12.9%
CCNCCC(CCC(C)C)c1ccc2c(c1)OCO2 (configuration not stated) | -12.7%
CC1CCCCN1C(=O)CSc1nnc(-c2ccco2)n1CC1CCCO1 (configuration not stated) | -7.7%

# Part of the list above, with each value named.
> S=C(NC1CCCCC1)NN1CCOCC1
  VDR inhibitor: 7.5%
> CCOc1ccccc1NC(=O)Nc1ccc(Cl)cc1
  VDR inhibitor: 1.6%

# Continuation.
molecule | VDR inhibitor
CC(C)[C@H](NC(=O)OCc1ccccc1)C(=O)OCC(=O)NC1(C#N)CCCC1 | 4.2%
CC(=O)Nc1ccc(NC(=O)CCC(=O)OCC(=O)c2ccc(F)cc2)cc1 | 1.7%
Cc1cc2cc3c(cc2nc1SCC(=O)N1CCN(C(=O)c2ccco2)CC1)OCO3 | -7.1%
Cc1ccccc1C(=O)N1CCC(C(=O)Nc2ccc(S(=O)(=O)N3CCCC3)cc2)CC1 | -17.8%
C[C@]12C(=O)N(c3ccc(F)cc3)C(=O)N1[C@H]1c3ccccc3OC[C@@H]1[C@H]2c1ccccc1 | -3.5%
Cc1ccsc1C(=O)Nc1cccc(S(=O)(=O)N(C)C)c1 | -12.7%
COc1cc(-c2oc3cc(O)cc(O)c3c(=O)c2O)ccc1O | -1.1%&-0.2%
COc1ccc(-n2ncc(C(=O)N3CCOCC3)c2C2CCN(C(=O)OC(C)(C)C)CC2)cc1 | -0.2%
CCN(CC)C(=O)CSc1n[nH]c(=S)n1N | 0.2%
O=C(COc1ccccc1[N+](=O)[O-])N/N=C/c1ccncc1 | 5.0%
Cc1[nH]c2ccccc2c1C(=O)C(=O)NCCCn1ccnc1 | -3.3%
O=C(O)CCC(=O)Nc1ccccc1C(=O)NCc1ccco1 | -1.6%
O=C(CCS(=O)(=O)c1cccc2nsnc12)N1CCN(C(=O)c2ccco2)CC1 | 26.7%
COc1cccc(CNC(=O)CSCC(=O)Nc2cc(C)on2)c1 | -1.7%
CCc1nc2ccc(C(=O)NCCc3ccc(OC)c(OC)c3)cc2nc1CC | -5.8%&10.6%
COCC(C)n1c(C)cc(C(=O)COC(=O)c2ccc3ncsc3c2)c1C (configuration not stated) | 10.3%
Cc1ccc2occ(CC(=O)Nc3nnc(C(C)C)s3)c2c1 | 0.3%
Cc1ccc(S(=O)(=O)NNc2nc3ccccc3nc2C(F)(F)F)cc1 | ?
O=C(CCS(=O)(=O)c1ccccc1Cl)NCCC1=CCCCC1 | -8.1%
CCCCN1CC(=O)N2Cc3[nH]c4ccccc4c3C[C@H]2C1=O | 6.3%
Cc1cnc(NC(=O)CCCc2nc3ccccc3s2)s1 | ?
